Screening results as filed in PubChem BioAssay.
RanGTP-Imp inh: inhibitors of RanGTP-importin-beta interaction, primary screen, biochemical, FRET, CFP-Ran, YFP-importin-beta, homogeneous; cell-free CFP-Ran/YFP-importin-beta FRET ratio; inhibition, % (test concentration not listed); 300,000 tested, 1.1% active; AID 2216;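 active = most replicates above 15%; inconclusive = exactly half above 15%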;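 also: 0% = DMSO wells and 100% = Ran loaded with GDP instead of GTP; wells of about 40 µL received 100 nL stock; the first replicate is given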
rRNA inh HTS: selective bacterial rRNA inhibition in E. coli; E. coli WT GFP vs humanized-ribosome RFP mutants, fluorescence, 24 h; stronger effect = lower value; DMSO median 0, no signal -100; GFP signal change (wild-type ribosome), % (no concentration beside the values); 350,000 tested, 1.6% active;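 active = significant combined selectivity score with lowered wild-type GFP, culture density cut under 30%, mutant RFP and density less affected; inactive = any of these conditions unmet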; also: one replicate is shown; some compounds called inactive have numbers as strong as hits
Beta cell apopt: beta cell apoptosis inhibition; INS-1E cytokine-induced death, ATP luminescence, 48 h; percent of positive-control rescue, neutral wells zero; 300,000 tested, 0.8% active; protection from apoptosis, % (concentration not given with the values);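 active = all replicates at 75% or more, or half of them and the mean; inconclusive = half reach 75% but not the mean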;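 also: 0% = cytokine-treated negative control wells and 100% = positive control rescue; higher means more ATP so stronger rescue from cytokine killing; wells of about 40 µL received 100 nL stock; the first replicate is given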
Calb FLC: affects C. albicans growth with fluconazole. 300,000 tested, 0.57% active. growth inhibition, % (test concentration not listed). C. albicans CaCi-2 (fluconazole-resistant clinical isolate) + fluconazole, Alamar Blue growth, 48 h;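 active = most replicates above 75%; inconclusive = exactly half above 75%; inactive = most below 75%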;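 also: all wells also contain fluconazole at 8 µg/ml as a sub-toxic cotreatment; 0% = median of DMSO wells and 100% = median of geldanamycin control wells; wells of about 8 µL received 7.5 nL stock; the first replicate is given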
AF4-AF9 inh: inhibitors of human MLL-AF4/AF9 interaction. 350,000 tested, 0.47% active. AlphaScreen, biotin-AF4 peptide binding to FLAG-AF9. inhibition, % at 10 µM;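 active = every replicate reaching a set inhibition limit, whatever the replicate mean, cut at about 25% in these data; inconclusive = mean inhibition reaches that limit but some replicates miss it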;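 also: 0% = plate neutral control median and 100% = total signal loss; the record names both 10 and 1 µM as test concentration; the first replicate is given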
Target sequence (P42568 whole entry, looked up): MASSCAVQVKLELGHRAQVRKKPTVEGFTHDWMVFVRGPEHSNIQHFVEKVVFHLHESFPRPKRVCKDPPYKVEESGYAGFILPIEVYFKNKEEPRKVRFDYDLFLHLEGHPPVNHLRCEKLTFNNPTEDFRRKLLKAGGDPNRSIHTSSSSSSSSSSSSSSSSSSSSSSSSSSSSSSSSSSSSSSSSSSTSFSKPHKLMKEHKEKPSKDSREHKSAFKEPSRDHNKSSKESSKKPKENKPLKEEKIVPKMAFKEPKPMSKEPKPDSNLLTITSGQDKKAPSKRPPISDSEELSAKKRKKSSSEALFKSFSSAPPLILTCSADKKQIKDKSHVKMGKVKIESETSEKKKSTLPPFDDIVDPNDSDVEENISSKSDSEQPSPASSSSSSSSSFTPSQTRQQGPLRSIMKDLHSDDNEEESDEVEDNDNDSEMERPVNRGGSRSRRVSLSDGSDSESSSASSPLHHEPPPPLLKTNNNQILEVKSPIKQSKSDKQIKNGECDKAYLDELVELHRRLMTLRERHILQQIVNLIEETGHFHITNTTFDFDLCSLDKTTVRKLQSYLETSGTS
T cruzi repl: blocks replication of Trypanosoma cruzi; T. cruzi beta-gal in NIH3T3, luminescence, 90 h; 300,000 tested, 1.4% active; inhibition, % (no concentration beside the values); AID 1885;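 active = mean inhibition across valid replicates above about 55%, limit read from the data; inconclusive = mean below that limit but half or more replicates reach it; inactive = mean below it, under half of replicates reach it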;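 also: signal also drops with host cell toxicity which is not excluded here; 0% = plate median of DMSO wells and 100% = zero luminescence signal; higher percent means less beta-gal luminescence so fewer parasites; stock transfer was 50 nL into about 50 µL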
Bfl-1 A1 inh: inhibitors of the anti-apoptotic protein A1, read as caspase activation. MEF A1-2A-BIM cells, Caspase-Glo 3/7 luminescence, 3 h; percent of clofoctol response, vehicle zero. caspase activation, % (test concentration not listed). 330,000 tested, 0.066% active. AID 2462;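 active = over half of replicate activation scores above 10%, or exactly half above 10 with the replicate mean above 10; inconclusive = replicate mean below 10 yet half the replicates above 10; inactive = over half of replicates below 10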;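 also: wells of about 30 µL received 50 nL stock; many hits fall short of the cut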
Vif A3G: inhibitors of Vif binding to APOBEC3G peptide, primary screen, biochemical, TR-FRET, GST-Vif 1-94, biotin-A3G peptide, dose response retest (AID 1117319). inhibition, %, or IC50 in µM where a hit was titrated. 260,000 tested, 0.57% active. TR-FRET GST-Vif / biotin-A3G peptide binding; higher % means a stronger effect; test concentration not given here; strong numbers were not always called active;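 active = above the screen mean plus three standard deviations and confirmed in dose response; inconclusive = results disagree or hit not tested in dose response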;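 also: Vif residues 1-94 fused to GST binding biotinylated APOBEC3G peptide 110-148; 0% = full assay without inhibitor and 100% = GST in place of GST-Vif; retest series ran down from 100 µM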
rRNA inh HTS OD600: also measured in rRNA inh HTS; calls as there; OD600 change, %; measured here: OD600 growth;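 optical density of the mix in the first replicate; 0 = DMSO median and -100 = no signal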
rRNA inh HTS RFP: recorded beside rRNA inh HTS, whose call it bears; RFP signal change, %; measured here: RFP humanized mutant strains;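 first replicate; 0 = DMSO median and -100 = no signal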
An asterisk follows results filed as active; ? = inconclusive; · = not tested or not shown. This is a subset (hit frequency here may not be typical).

SMILES | RanGTP-Imp inh | rRNA inh HTS | rRNA inh HTS OD600 | rRNA inh HTS RFP | Beta cell apopt | Calb FLC | AF4-AF9 inh | T cruzi repl | Bfl-1 A1 inh | Vif A3G
O=c1c2cc3c(=O)n(-c4ccccc4O)c(=O)c3cc2c(=O)n1-c1ccccc1O | 6.0 | -13.8 | 0.2 | 9.7 | 0.9 | -0.3 | -0.5 | -16.0 | 0.4 | ?
O=C(CN(C(=O)CCC(=O)Nc1ccccn1)C1CCCC1)NCc1ccccc1 | -2.7 | 10.3 | 17.3 | 0.7 | -1.5 | 15.4 | -5.9 | 6.4 | -0.5 | ·
O=C(O)CN1C(=O)/C(=C/c2ccccc2Br)Oc2ccccc21 | 2.8 | -15.6 | -21.2 | 1.9 | 2.0 | 8.7 | 4.0 | -10.8 | ? | 5.9%
COC(=O)c1ccc(NC(=O)CN2C(=O)CNC2=O)cc1 | 1.0 | 14.2 | 17.0 | 1.4 | 1.0 | -11.8 | · | -7.9 | 0.6 | 3.8%
CC(C)c1cc(-c2cc(C(=O)Nc3ccccc3)on2)nc(NC2CCCC2)n1 | -1.8 | 8.7 | 1.0 | -0.9 | 15.1 | -5.4 | -7.5 | 9.6 | 0.4 | ·
CN(C(=O)CCOc1ccccc1)c1c(N)n(Cc2ccccc2)c(=O)[nH]c1=O | -2.1 | 10.0 | 14.1 | 2.9 | -5.2 | -4.4 | 11.5 | -3.5 | 0.2 | 6.3%
CCN(CC)c1ccc(C(=O)NC(=S)N2CCN(Cc3ccc4c(c3)OCO4)CC2)cc1 | ? | -17.5 | -14.1 | -1.8 | 4.1 | -23.4 | 3.8 | 3.4 | -0.1 | 9.2%
Brc1ccc(/C=N/Nc2ccccn2)cc1 | 6.6 | 10.8 | 8.1 | -3.9 | -3.3 | -25.1 | 7.3 | 2.5 | -4.2 | 1.8%
COc1ccccc1CNC(=O)CN1C(=O)c2cccc(N)c2C1=O | 27.5* | 6.4 | 10.5 | 1.2 | -4.5 | -7.2 | -0.7 | 1.3 | -2.6 | -0.4%
CC1CC(C)CN(S(=O)(=O)c2ccc3c(c2)n(C)c(=O)c(=O)n3C)C1 (stereo unspecified) | 1.4 | 0.6 | 13.7 | 6.7 | 4.9 | 0.8 | -3.8 | 5.3 | 0.6 | 1.4%
O=C(Cc1ccc(S(=O)(=O)N2CCCCC2)cc1)NCc1ccc(Cl)cc1 | · | 4.3 | -8.4 | -0.8 | 0.4 | · | -2.6 | · | 0.4 | -8.5%
C/C(=N\Nc1cc(C(F)(F)F)ccc1Cl)c1ccccc1O | ? | · | · | · | 13.6 | 0.7 | · | 3.8 | 1.9 | 20.7%
Cc1ccc(-n2cc(CN3CCN(c4ccccn4)CC3)c(-c3ccc(F)cc3)n2)cc1 | -3.4 | 3.9 | -8.7 | 4.5 | 0.2 | 0.2 | 3.6 | 43.4 | 0.6 | -7.6%
COc1ccc(C(=O)NC(=S)Nc2nnn(C)n2)cc1 | 4.2 | -4.2 | -5.8 | -0.4 | -3.9 | -4.4 | 3.5 | -17.7 | -0.6 | ?
CCCCS(=O)(=O)N1CCCC(C(=O)Nc2ccc(Cl)cn2)C1 (stereo unspecified) | -4.4 | -0.2 | -3.6 | 0.0 | -6.4 | -1.3 | -1.8 | -2.9 | -0.4 | -10.0%
COc1ccc(CSc2nnc(Cc3sc(-c4ccccc4)nc3-c3ccccc3)o2)cc1 | 5.3 | · | · | · | 7.2 | -0.7 | · | 26.0 | -0.4 | 11.2%
Cc1ccc(C(C(=O)NCc2ccco2)N(C(=O)CNC(=O)c2cccs2)c2ccc(C)cc2)cc1 (stereo unspecified) | 2.3 | · | · | · | -7.5 | 1.3 | · | -25.3 | -0.3 | -1.4%
O=C(Oc1ccccc1C(=S)N1CCOCC1)c1ccccc1 | 0.7 | -2.0 | -1.6 | 3.7 | -2.8 | -4.3 | -31.0 | -6.2 | 0.7 | ·
COc1cc(-c2nc(C(=O)NC3CCCCC3)cc3c2[nH]c2ccccc23)cc(OC)c1OC | -0.1 | · | · | · | · | 2.3 | -0.7 | 54.1 | -0.1 | ·
CC(=O)C1=C(C)NC(C)=C(C(C)=O)C1c1ccccc1 | -4.7 | 10.1 | 4.9 | -8.7 | -1.5 | -1.0 | -0.9 | -9.1 | 0.7 | -11.3%
Cc1ccccc1Cn1c(=O)sc2ccccc2c1=O | -3.1 | 10.9 | 7.9 | 2.2 | -2.9 | -5.9 | -1.8 | 26.3 | 0.4 | 1.4%
COc1cccc(C(=O)OCC(=O)c2ccc(Br)s2)c1OC | · | -14.0 | -36.0 | -3.7 | 14.6 | · | 0.7 | · | -1.3 | ·
Cc1ccc(C2=NCCn3nc4cc([N+](=O)[O-])ccc4c32)cc1 | -1.2 | -2.3 | 4.6 | -2.2 | -0.5 | 7.0 | -0.2 | -15.6 | -0.2 | ·
CC(C(=O)OCC(=O)c1ccc(Br)cc1)N1C(=O)C2C3C=CC(C3)C2C1=O (stereo unspecified) | -4.2 | 0.3 | -9.0 | 3.3 | -7.5 | -0.3 | -2.1 | 7.9 | -0.2 | ·
O=C(CSc1nc2sccc2c(=O)[nH]1)N1CCN(c2ccccc2)CC1 | -1.7 | 3.8 | -1.5 | 37.9 | -3.9 | 1.8 | -2.8 | 11.5 | 0.3 | ·
COc1ccc(-c2[nH]c3ccccc3c2SCCNC(=O)c2ccccc2)cc1 | 5.4 | -0.3 | -13.7 | 2.7 | 17.8 | 29.2 | 4.4 | 16.7 | -0.4 | -2.9%
CN(C)C(=O)CN1CCN(C(=O)CCl)CC1 | 4.4 | 11.2 | 9.3 | -6.5 | -4.5 | -9.2 | -1.2 | 0.8 | 0.1 | 16.8%
Cc1ccc(C)c(CN2C(=O)c3ccccc3S(=O)(=O)c3ccc(C(=O)N4CCN(C)CC4)cc32)c1 | -0.4 | 0.2 | -3.0 | 3.6 | 3.8 | -12.2 | 0.0 | -0.5 | -0.7 | ·
Fc1cccc(Cl)c1CNn1cn[nH]c1=S | 0.4 | 12.4 | 2.8 | 0.0 | -3.4 | -3.6 | -1.7 | -14.1 | -0.4 | ?
CC(C)CN1CCN(Cc2cc3ccccc3[nH]2)CC1CCO (stereo unspecified) | 12.5 | 7.1 | 5.6 | 4.8 | · | -13.1 | 11.1 | 3.4 | 0.0 | ·

2 entries from above, reformatted.
Each structure is followed by: RanGTP-Imp inh, rRNA inh HTS, rRNA inh HTS OD600, rRNA inh HTS RFP, Beta cell apopt, Calb FLC, AF4-AF9 inh, T cruzi repl, Bfl-1 A1 inh, Vif A3G
CN(C)C(=O)CN1CCN(C(=O)CCl)CC1
    4.4, 11.2, 9.3, -6.5, -4.5, -9.2, -1.2, 0.8, 0.1, 16.8%
Cc1ccc(C)c(CN2C(=O)c3ccccc3S(=O)(=O)c3ccc(C(=O)N4CCN(C)CC4)cc32)c1
    -0.4, 0.2, -3.0, 3.6, 3.8, -12.2, 0.0, -0.5, -0.7, ·

Other compounds follow:
SMILES | RanGTP-Imp inh | rRNA inh HTS | rRNA inh HTS OD600 | rRNA inh HTS RFP | Beta cell apopt | Calb FLC | AF4-AF9 inh | T cruzi repl | Bfl-1 A1 inh | Vif A3G
Clc1ccc(SCc2nc3ccccc3[nH]2)cc1 | 3.3 | · | · | · | 6.8 | -0.2 | · | -4.5 | -0.3 | 27.0%
O=S(=O)(NCc1cccs1)NCc1ccccc1F | -1.7 | 3.7 | 3.0 | 5.8 | -0.6 | -2.6 | -2.6 | -2.3 | 0.9 | 9.9%
O=C(CSc1ccc([N+](=O)[O-])cc1)OCC(=O)N1CCCC1=O | · | 0.6 | 3.6 | -2.1 | 3.3 | · | -0.9 | · | -0.4 | -3.0%
O=C(NCc1ccccc1Cl)c1cccc(NC2=NC3CS(=O)(=O)CC3S2)c1 (stereo unspecified) | -4.0 | 0.5 | 3.2 | -1.9 | -0.1 | -1.9 | -1.1 | -14.8 | -0.1 | ·
CCC1CCCCN1C(=O)CCc1nnc(C2CCCCC2)o1 (stereo unspecified) | ? | 9.3 | -0.2 | -9.9 | -3.8 | -1.9 | -1.1 | 4.1 | -0.2 | -10.8%
O=C(NCCCN1CCCC1=O)Nc1cc(Cl)ccc1Cl | -4.6 | -2.3 | 2.6 | -2.2 | -2.8 | -4.5 | -2.9 | 7.0 | 0.1 | 1.6%
COc1ccc2c(=O)c(-c3ccc4c(c3)OCO4)coc2c1 | 3.7 | · | · | · | -0.8 | -1.2 | · | -9.6 | -11.8 | -7.2%
O=C(Cc1coc(-c2ccc(F)cc2)n1)NCc1ccccc1 | 2.1 | · | · | · | -2.8 | 6.3 | · | -10.4 | 0.4 | -0.1%
CCc1nn(CC(=O)NCCN2CCN(C)CC2)c(=O)c2cc3occc3n12 | -0.3 | · | · | · | -3.1 | -6.5 | · | -18.1 | 0.8 | ?
CC(=O)c1ccc(N(CC(=O)NCCc2ccccc2)C(=O)c2csnn2)cc1 | 0.8 | 6.1 | -1.9 | -0.3 | -1.6 | -4.1 | -0.5 | -0.5 | 0.6 | ·
Cc1cc(OCC(O)CN2C(C)CCCC2C)ccc1C(C)C (stereo unspecified) | 1.9 | 8.6 | -4.0 | 0.6 | 1.7 | -0.9 | 2.5 | 23.9 | -0.3 | -5.5%
CCOc1ccc(NC(=O)CSc2nnnn2C2CCCC2)cc1 | -0.9 | 5.6 | 15.1 | -0.8 | -4.0 | 29.6 | -2.5 | -0.7 | -0.3 | ·
CC(O)c1ccc(Oc2cnccn2)cc1 (stereo unspecified) | -2.9 | -3.5 | 2.0 | 1.4 | -6.7 | 0.9 | -2.7 | -9.2 | 1.8 | 1.2%
COCCCNC(NC(=O)c1ccc(Cl)cc1)C(Cl)(Cl)Cl (stereo unspecified) | 1.3 | · | · | · | 12.6 | 0.1 | · | -8.9 | 0.8 | 16.2%
CN(Cc1ccccc1)C(=S)Nc1ccc(OC(F)F)cc1 | -0.7 | · | · | · | · | 4.9 | · | -3.9 | -0.1 | -6.1%
O=S(=O)(c1ccc(N2CCCC2)cc1)C(F)(F)F | 8.2 | · | · | · | 16.7 | -18.1 | · | -17.7 | 1.7 | 14.4%
O=C(CN1CCC(n2nnc3cc(C(F)(F)F)ccc32)CC1)N1CCc2ccccc21 | 9.2 | · | · | · | · | 1.9 | · | 13.0 | 0.4 | -2.5%
O=C(COC(=O)c1ccc2ncsc2c1)NCc1ccc(Cl)cc1 | · | -2.4 | -0.6 | -1.7 | 3.9 | · | 0.8 | · | 0.0 | ·
NC(=O)c1ccc(NC(=O)COC(=O)CCc2ccc(S(=O)(=O)N3CCCCC3)cc2)cc1 | 2.1 | 2.7 | 2.9 | -4.2 | -2.4 | -2.4 | -6.4 | 9.8 | 0.0 | -3.4%
O=C(Cn1nc(-c2ccccc2)ccc1=O)NCC1COCCO1 (stereo unspecified) | 1.3 | · | · | · | -10.8 | 39.1 | · | -4.6 | -0.3 | 10.7%
